Sfp inh = blocks B. subtilis Sfp PPTase activity | Potency, µM, without a hit: max response, negative = inhibition, hits mostly inhibitors | 310,000 compounds, 3.5% hits | AID 1490 | Biochemical Sfp PPTase activity, qHTS; active = well fitted inhibition curve with a large enough effect; inconclusive = small, poorly fitted or top-dose-only effect, or another doubt; inactive = no such curve, though single readings can be large or run the other way;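 note: the enzyme is Sfp with the accession as filed and its product quenches rhodamine fluorescence; potency is the fitted concentration of half-maximal effect; 0% = enzyme reaction without inhibitor and -100% = no enzyme wells; top concentration of the series not given in the record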
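Sfp 15 nM + cpd, 15 min RT; start w/ rhodamine-CoA 5 uM, BHQ-2-YbbR 12.5 uM (final); 50 mM Hepes pH 7.6, 10 mM MgCl2, 0.01% NP-40, 0.01% BSA; read 525/598 nm at 0 and 30 min.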
PINK1 expr mod = PINK1 expression modulation | Potency, µM (series often up to 76.6 µM), for inactives: top-dose activation (PINK1 increase), usual class: activators | AID 624263 | 410,000 compounds, 0.2% hits | PINK1 immunofluorescence, high-content cytometry, 24 h; active = well fitted activation curve with a large enough effect; inconclusive = small, poorly fitted or top-dose-only effect; inactive = flat fitted curve, though single readings scatter; cell line not stated here;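 note: potency is the fitted concentration of half-maximal effect; % of control where 0% means no effect; nearly all actives have a fitted effect of over 65% in size; a mitochondrial uncoupler was the plate control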
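Compound titrations (5 concentrations, 24 h) on a stable cell line; DMSO and CCCP controls. Endpoint: fixed-cell PINK1 immunofluorescence with mitochondrial, cell and nuclear markers, scanned by microplate cytometer.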
gsp antag = gsp mutant antagonism | AID 624288 | 340,000 compounds, 0.4% hits | Potency, µM (titrated, usually from 76.9 µM), for inactives: at the highest dose activity change, negative = inhibition, actives largely listed as inhibitors | gsp-mutant cells, cAMP HTRF, 30 min; control for the full effect not named in the record; active = falling curve of any shape with a large fitted effect; inconclusive = falling curve, mostly with a smaller effect; inactive = flat or rising curve; cell line not stated here;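 note: intracellular cAMP measured with PDE inhibitor Ro 20-1724 present during compound exposure; potency is the fitted concentration of half-maximal effect; % is set by controls: 0 for no effect and ±100 for the full control effect; nearly all actives have a fitted effect of over 65% in size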
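Measurement of cellular cAMP by homogeneous time-resolved fluorescence following a 30 min compound exposure at 37C. The PDE inhibitor […] was present throughout; the assay buffer was DPBS with 0.05% BSA and 0.005% Tween 20.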
Menin-MLL FL inh = displaces fluorescein MLL peptide from human menin; 290,000 tested, under 10 active; Fluorescence polarization, fluorescein-MLL peptide displacement from menin; FP activity change, % at 61.4 µM; inconclusive = falling polarisation curve, or a change in total fluorescence; inactive = total fluorescence flat and polarisation flat or rising; no compound was filed as active; the % refers to the polarisation; negative = inhibition;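 note: % of control where 0% means no effect; inhibitors lower the polarisation; unlabelled MLL peptide was the positive control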
D2 agonist = agonists of human D2 dopamine receptor (beta-arrestin). P14416. DiscoveRx PathHunter D2 beta-arrestin, luminescence, 90 min; 100% = 57 uM dopamine signal. activation, % (concentration not given with the values). 360,000 compounds, 0.084% hits. AID 624465; in the data active = activation above about 40%; inconclusive = about 15% to 40%; inactive = below about 15%; note: the text of the record calls up to 30% inactive
Target sequence (P14416 whole entry, looked up): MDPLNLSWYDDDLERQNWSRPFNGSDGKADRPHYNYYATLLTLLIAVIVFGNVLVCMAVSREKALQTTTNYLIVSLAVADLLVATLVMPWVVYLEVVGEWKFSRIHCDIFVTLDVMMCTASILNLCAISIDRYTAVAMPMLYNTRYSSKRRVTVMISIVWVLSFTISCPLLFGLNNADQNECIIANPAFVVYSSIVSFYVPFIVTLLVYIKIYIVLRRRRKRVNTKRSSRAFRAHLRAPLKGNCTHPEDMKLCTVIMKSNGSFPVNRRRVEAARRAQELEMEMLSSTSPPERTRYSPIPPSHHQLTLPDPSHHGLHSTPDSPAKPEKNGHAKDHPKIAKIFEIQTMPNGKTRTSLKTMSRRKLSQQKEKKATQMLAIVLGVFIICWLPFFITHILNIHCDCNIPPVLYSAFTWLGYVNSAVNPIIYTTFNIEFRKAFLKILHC
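DiscoveRx PathHunter D2 beta-arrestin cells (2,100/well) attached overnight, then compound-stimulated 90 min at 37 C in HBSS/10 mM HEPES/0.1% Tween-20 buffer; beta-galactosidase complementation read by luminescence after 1 h at ambient temperature. Dopamine 57 uM final (EC100) as control.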
ClpP mod = qHTS Assay for Activators of ClpP. ATP-dependent Clp protease proteolytic subunit (Bacillus subtilis (strain 168)), P80244. purified B. subtilis ClpP, FRET peptide cleavage, 20 min. Potency, µM (titrated, usually from 57.5 µM), inactives show at the top dose activity change, negative = active. 340,000 compounds, 1.9% hits; active = well fitted falling curve with a large enough effect; inconclusive = small, poorly fitted or top-dose-only effect; inactive = no such curve, though single readings can be large or run the other way; note: potency is the fitted concentration of half-maximal effect; the source files actives as falling curves though it sought activators and does not explain the sign; nearly all actives have a fitted effect of over 65% in size; many hits overshoot -100%
Target sequence (P80244 whole entry, looked up): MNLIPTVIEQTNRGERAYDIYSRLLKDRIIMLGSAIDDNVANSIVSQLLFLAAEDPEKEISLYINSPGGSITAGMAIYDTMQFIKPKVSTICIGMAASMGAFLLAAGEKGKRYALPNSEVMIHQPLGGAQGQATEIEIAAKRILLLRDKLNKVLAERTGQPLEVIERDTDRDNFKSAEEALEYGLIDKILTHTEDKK
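Buffer: 100 mM Tris/HCl pH8, 100 mM KCl, 0.05% low protease BSA, 2.5% glycerol, 0.01% Tween-20. ClpP 10 microg/mL final; 20 min RT; delta FRET normalized to ADEP and DMSO controls.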
gsp ag = agonists of gsp mutant (McCune-Albright syndrome); gsp mutant cells, cAMP HTRF, 30 min; control for the full effect not named in the record; Potency, µM (doses to about 76.9 µM), without a hit: top-dose activation (cAMP increase), most hits filed as activators; 340,000 compounds, 0.13% hits; AID 624287; active = well fitted activation curve with a large enough effect; inconclusive = small, poorly fitted or top-dose-only effect, or another doubt; inactive = no such curve, though single readings can be large or run the other way; cell line not stated here;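 note: phosphodiesterase inhibitor Ro 20-1724 added with compounds to block cAMP breakdown; potency is the fitted concentration of half-maximal effect; nearly all actives have a fitted effect of over 60% in size; about a fifth of the inactives were tested at one dose only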
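Cells stably selected in G418 were plated at 2000/well, grown 16-24 hr, then given compounds in DMSO with the PDE inhibitor […] (300 uM solution added) for 30 min at 37C; cAMP was read by HTRF.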
An asterisk follows results filed as active; ? = inconclusive; nt = no result given; & = joins results of further samples; [ ] = another dose, or the depositor's remark. Compounds as they come (roughly 5.1% active in at least one column).

SMILES | Sfp inh | PINK1 expr mod | gsp antag | Menin-MLL FL inh | D2 agonist | ClpP mod | gsp ag
COc1ccc(C2C(C(N)=O)=C(C)Nc3nc(-c4cccc(Cl)c4)nn32)cc1OC (configuration not stated) | 6% | 9.2% | 14% | -1.5 | -3.5 | -6.9% | -41%
Cc1ccc(S(=O)(=O)N2CCCCCC2)cc1C(=O)Nc1cccnc1 | 7% | 0.5% | -2% | 0.7 | -2.5 | 1.6% | -19%
CCN(CC)S(=O)(=O)c1cccc(NC(=O)CN2C(=O)NC3(CCC(C)CC3)C2=O)c1 (configuration not stated) | nt | -0.7% | 11% | nt | 3.0 | 1.9% | 5%[15.4 µM]
CCCCn1c(N)c(N(CC(C)C)C(=O)c2cnccn2)c(=O)[nH]c1=O | nt | 0.2% | 1% | nt | -6.5 | nt | 17%[15.4 µM]
COc1cccc(NC(=O)CSc2nnc(C3CCCCC3)n2N)c1 | nt | 2.8% | 1% | nt | -1.9 | -0.1% | -2%
OCCC1CN(Cc2ccc(F)cc2Cl)CCN1CCc1ccccc1 (configuration not stated) | 11% | 5.2% | 7% | 1.7 | 3.4 | nt | -12%
CCCn1c(SCC(=O)Nc2ccc(S(=O)(=O)N3CCOCC3)cc2)n[nH]c1=O | nt | 0.7% | nt | nt | -4.6 | 0.6% | -30%
C=CCN=C(NC#N)SCC(=O)NCc1ccccc1 | ? | 1.4% | 1% | ? | 0.2 | -24% | -2%
CO/N=C\Cc1oc(=O)c(NC(=O)c2ccccc2)cc1C(=O)OC | -10% | 3.1% | ? | ? | -1.3 | -0.1% | 17%
CON1C(=O)C(=O)N(OC)C(C)(C)C1(C)C | 9% | 1.1% | 4% | 0.8 | 0.6 | -2.8% | -6%
CN(Cc1ccncn1)C(=O)C1CCC(=O)N(Cc2cccc(C(F)(F)F)c2)C1 (configuration not stated) | -3% | 3.6% | 4% | -2.0 | -3.4 | 4.8% | -10%
CC(=O)NC(CC(=O)N(C)C1CCCCC1)c1ccccc1 (configuration not stated) | 13% | -0.9% | 10% | 2.7 | 5.6 | nt | 10%
Cc1ccc(S(=O)(=O)N(CC(=O)N2CCOCC2)CC(=O)N2CCOCC2)cc1 | 1% | -0.7% | -7% | 5.3 | -1.5 | -0.9% | 10%
CC1CN(S(=O)(=O)c2ccc(NC(=O)c3ccco3)cc2)CC(C)O1 (configuration not stated) | -7% | 2.5% | -1% | 1.3 | -0.6 | -1.0% | -10%
COc1ccc([C@H]2CC(=O)C=C(c3ccc(Br)c4ccccc34)C2)cc1 | nt | 5.1% | 2% | nt | -2.3 | -1.1% | 29%
CCC(C)(C)c1ccc(OCCCC[n+]2cccc(C)c2C)c(C(C)(C)CC)c1 | 45µM* | -1.7% | -4% | 2.1 | -5.6 | 0.9% | 8%
COc1ccc(/C=N/Nc2ncnc3sc4c(c23)CCCC4)cc1OC | -8% | 1.3% | -28% | 2.0 | -4.4 | 1.0% | -3%[15.4 µM]
COc1cc(OC)cc(C(=O)NC(C)c2ccc(Br)cc2)c1 (configuration not stated) | 18% | 1.3% | 5% | -0.5 | -2.9 | nt | 1%
CC(C)CCOP(=O)(c1ccccc1)c1ccccc1 | -3% | -1.2% | 2% | -1.1 | -4.7 | -2.0% | -9%[15.4 µM]
Cc1cc(N/N=C(/CCC(=O)O)C(=O)O)nc2ccccc12 | 50µM* | 1.9% | 0% | 3.0 | -3.0 | nt | -4%
CC(=O)Nc1cc(-c2ccsc2)cn2c(-c3ccc(F)cc3)cnc12 | nt | 6.2% | nt | nt | -1.9 | -17% | nt
Cn1c(N)c(S(=O)(=O)NCc2ccc(F)cc2)c(=O)n(C)c1=O | 15% | 1.3% | 11% | nt | -1.1 | -0.3% | 5%[15.4 µM]
COc1ccc(NC(=O)C2Cc3c(-c4ccc(Cl)cc4)ccnc3O2)cn1 (configuration not stated) | nt | 3.3% | nt | nt | 2.3 | 0.1% | nt
COCCCn1c(=O)c2ccccc2n(CC(=O)N2CCCc3ccccc32)c1=O | 11% | -0.5% | -26% | 3.3 | -2.0 | nt | -12%
O=C(NCC1CCCO1)Nc1cc(Cl)cc(Cl)c1 (configuration not stated) | 9% | -0.3% | 7% | 3.3 | -1.7 | -1.4% | 6%
Cc1ccc(S(=O)(=O)N2CCOCC2)cc1C(=O)OCC(=O)NC1CCCCC1 | nt | 6.9% | 5% | nt | -1.9 | nt | 16%[15.4 µM]
Cn1nc(C(=O)Nc2ccc3c(c2)OCO3)c2ccccc2c1=O | 4% | 2.3% | -1% | 4.8 | -0.8 | -2.4% | -4%
COCCn1c(C)cc(C(=O)COc2nc3ccccc3nc2C)c1C | 2% | -1.6% | ? | 7.2 | 0.8 | -0.8% | -31%[inhibitor]
Brc1ccc(-c2ncc3ccccn23)cc1 | ? | 0.1% | 9% | 2.7 | -2.3 | -6.3% | 3%
CCN(CCCNC(=O)c1ccc2c(c1)NC(=O)CN2C)c1cccc(C)c1 | -3% | -1.2% | -15% | nt | 10.0 | -2.2% | ?
COc1ccccc1C(=O)NCC(=O)OCc1csc(-c2ccccc2)n1 | 6% | 2.7% | -25% | 2.5 | -4.7 | -3.5% | 5%[15.4 µM]
O=C(/C=C/c1ccco1)Nc1nc(-c2ccccc2)cs1 | -21% | 1.8% | 4% | 1.2 | -4.9 | -3.0% | -15%
CCN(CC)C(=O)NC(c1ccc(C)c(F)c1)C(Cl)(Cl)Cl (configuration not stated) | 10% | 1.2% | -17% | 12 | 1.0 | 1.0% | 4%
CC(=O)c1c(C)[nH]c(C(=O)Nc2ccccn2)c1C | 12% | 0.8% | 0% | nt | -2.0 | -7.7% | -7%
CCCN(CC1CC1)C(=O)COC(=O)c1ccc2c(c1)C(=O)N(c1ccc(OCC)cc1)C2=O | 17% | 1.2% | -9% | 0.0 | -0.5 | nt | 28%
Fc1cccc(Nc2nc(-c3ccncc3)nc3ccccc23)c1 | 12% | 9.3% | -12% | 3.9 | 5.0 | -12% | -7%
N#Cc1ccccc1NC(=O)CSc1ccc([N+](=O)[O-])cn1 | -14% | 0.7% | 0% | 1.4 | -1.1 | nt | ?
COc1c(C)cc(Br)cc1C(=O)Nc1ccc(S(N)(=O)=O)cc1 | 17% | 4.2% | 5% | 1.0 | -19 | nt | -8%[15.4 µM]
COc1cccc(NC(=S)N2CCC(N(C)CC3CCCO3)CC2)c1 (configuration not stated) | ? | -0.7% | 5% | 0.1 | -2.3 | -1.2% | 0%
CCc1cc(=O)oc2c(CNCc3ccc(OC)cc3OC)c(O)c(Cl)cc12 | -10% | 0.0% | 9% | -0.3 | -0.9 | -3.1% | -5%[15.4 µM]
Cc1ccc[n+](/C(=C\C(=C=[N-])C#N)C(=O)c2ccc(Cl)cc2)c1 | 18% | -0.1% | 0% | 0.2 | 2.1 | nt | 6%
COCc1cc(C(C)=O)ccc1OCC(=O)Nc1ccc(NC(C)=O)cc1 | 9% | -0.6% | -5% | -3.9 | -1.1 | nt | -1%[15.4 µM]
Cc1cccc(OCC(=O)N/N=C\c2cccn2C)c1C | 13% | 0.8% | -4% | -4.9 | -3.8 | nt | 6%[15.4 µM]
Fc1ccccc1-c1nc(NCc2ccccc2)c2ccccc2n1 | 1% | 27% | ? | 4.5 | -0.4 | nt | -1%[15.4 µM]
Cc1ccc2c(Cl)c(C(=O)N/N=C/c3cccn3C)sc2c1 | 23% | 14% | -15% | 1.4 | 2.5 | 25% | -21%
COc1ccccc1C(=O)NCC(=O)N1CCN(S(=O)(=O)c2ccccc2C(F)(F)F)CC1 | nt | 0.6% | -13% | nt | -0.6 | -1.4% | 3%
C=CCNc1cc(F)ccc1S(=O)(=O)NCC=C | nt | 2.2% | 0% | nt | -1.6 | -7.4% | nt
CC(=O)OCCN1CCN(C(=O)CN2C(=O)NC(c3ccccc3)(c3ccccc3)C2=O)CC1 | -1% | 2.4% | 12% | 2.7 | -7.6 | 0.5% | -3%
CCOC(=O)c1cnc2sccn2c1=O | 6% | 1.9%[38.3 µM] | 14% | 0.0 | -1.0 | ? | 25%
c1ccc2c(Cn3ccnc3)cccc2c1 | 5% | 1.3% | -12% | -4.1 | -1.7 | 1.9% | -2%[15.4 µM]
CCCCC(=O)Nc1ccccc1C(=O)N1CCOCC1 | 8% | nt | 6% | -1.7 | -0.5 | -4.5% | 5%
O=C(NCC(=O)N1CCN(c2ncc(C(F)(F)F)cc2Cl)CC1)c1ccc(Br)o1 | 8% | 1.2% | 3% | nt | 0.4 | -3.1% | 0%[15.4 µM]
CC(C)(C)c1nc(SCC(=O)N2CC(=O)Nc3ccccc32)c2ccccc2n1 | 16% | 11% | nt | 2.1 | -2.5 | nt | -1%[15.4 µM]
C=CCN1C=C2C(=O)C(C)(OC(=O)CCC(=O)OC)C(=O)C(Br)=C2C=C1c1ccc(OC)cc1 (configuration not stated) | 13%&-29% | 0.5% | -22% | ? | 10 | -1.6% | nt
COc1ccc(Cc2nnc(NC(=O)C3CC(=O)N(CCc4ccc(F)cc4)C3)s2)cc1OC (configuration not stated) | 7% | -1.5% | 6% | -2.7 | 4.5 | -0.6% | -12%
CCOC(=O)Nc1ccc2c(CNC(C)c3ccccc3OC)cc(=O)oc2c1 (configuration not stated) | -19% | 1.7% | -7% | 2.8 | -4.4 | nt | 10%
CCn1c(COc2ccccc2)nnc1SCC(=O)Nc1ccc(N2CCOCC2)cc1 | 25% | 1.1% | 4% | 1.4 | -1.5 | nt | 1%[15.4 µM]
CC(OC(=O)c1ccc(Cl)nc1)C(=O)NCc1ccc2c(c1)OCO2 (configuration not stated) | nt | -1.6% | 7% | nt | -1.5 | -1.8% | -10%[15.4 µM]

Screens as filed in PubChem.
